MT1-MMP act inh – blockers of MT1-MMP proenzyme processing, primary screen, HT1080 RFP-PRO-GFP cells, GFP/RFP fluorescence; Matrix metalloproteinase-14 (Homo sapiens), P50281; GFP/RFP ratio fluorescence, overnight; percent of plate control window, DMSO zero; GFP/RFP ratio change, % at 20 µM; 0.061% of 360,000 active;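 active means GFP/RFP ratio change of at least 30% with cell ATP level not reduced by more than half and red fluorescence within 50% of control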; further: strong numbers were not always called active
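Assay system – RFP-PRO-GFP reporter HT1080 cells · Compound dosing – single dose of 20 µM compound, 1% DMSO final · Incubation – overnight compound exposure at 37 °C · Measure – GFP/RFP fluorescence ratio · Benchmarks – DMSO wells and RFP-L50D-GFP cells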
eIF4H FP inh – human eIF4H binding inhibitors, primary screen, translation initiation inhibitor project, biochemical, uHTS, fluorescence polarization; inhibition, % at 35 µM; 0.94% of 290,000 active; eIF4H fluorescence polarization binding assay; Eukaryotic translation initiation factor 4H (Homo sapiens), Q15056;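 active means 50% or more with normal probe brightness, or confirmed in later tests; about a fifth of its hits are not listed in these tables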;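 further: calls also rest on retests at 20 µM and on dose response follow-up; 0% = protein and probe with vehicle and 100% = probe without protein; strong numbers were not always called active; many hits fall short of the cut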
UUG fidelity – modulators of yeast start codon fidelity, primary screen, whole organism, S. cerevisiae, single point, plate reader | activity score, % at 18.7 µM | 0.13% of 350,000 active | AID 602363, 2012 | S. cerevisiae UUG-firefly luciferase reporter, luminescence/redox ratio;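 active means replicate mean at a twofold rise or more, about +100% in these data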;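 further: firefly luciferase made from a UUG start codon reports start codon fidelity; reporter light over untreated wells divided by growth signal over untreated wells; some hits fall short of that in this replicate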
Env fusion inh – inhibitors of HIV-1 Env-driven cell-cell fusion, primary screen, HeLa-JRFL effector, CEM21 target cells, luciferase; AID 651610, 2012; inhibition, % at 12.3 µM; 1.1% of 360,000 active;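 active means mean replicate inhibition score of at least 50 and every replicate individually at or above 50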;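 further: 0% = plate neutral controls and 100% = maraviroc near 300 nM; one replicate is shown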
CSC inhib – cancer stem cell viability inhibitors, primary screen, luminescence; 1.1% of 300,000 active; cancer stem cell-like cells viability; inhibition, % at 7.5 µM;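 active means mean at 75% or more and at least half the replicates too; tested in HMLE shEcad cells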;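 further: 0% = median of negative and 100% = median of positive control wells; the first replicate is given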
PABP FP inh – PABP poly(A) RNA binding inhibitors, primary screen, biochemical, fluorescence polarization, uHTS; Polyadenylate-binding protein 1 (Homo sapiens), P11940; inhibition, % at 35 µM; 1% of 290,000 active; AID 2014, 2009;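 active means 50% or more with normal probe brightness, or confirmed in later tests; about a fifth of its hits are not listed in these tables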;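 further: calls also rest on retests at 20 µM and on dose response follow-up; controls were probe without protein and protein plus probe with vehicle; some compounds called inactive have numbers as strong as hits; many hits fall short of the cut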
Target sequence (P11940 whole entry, looked up): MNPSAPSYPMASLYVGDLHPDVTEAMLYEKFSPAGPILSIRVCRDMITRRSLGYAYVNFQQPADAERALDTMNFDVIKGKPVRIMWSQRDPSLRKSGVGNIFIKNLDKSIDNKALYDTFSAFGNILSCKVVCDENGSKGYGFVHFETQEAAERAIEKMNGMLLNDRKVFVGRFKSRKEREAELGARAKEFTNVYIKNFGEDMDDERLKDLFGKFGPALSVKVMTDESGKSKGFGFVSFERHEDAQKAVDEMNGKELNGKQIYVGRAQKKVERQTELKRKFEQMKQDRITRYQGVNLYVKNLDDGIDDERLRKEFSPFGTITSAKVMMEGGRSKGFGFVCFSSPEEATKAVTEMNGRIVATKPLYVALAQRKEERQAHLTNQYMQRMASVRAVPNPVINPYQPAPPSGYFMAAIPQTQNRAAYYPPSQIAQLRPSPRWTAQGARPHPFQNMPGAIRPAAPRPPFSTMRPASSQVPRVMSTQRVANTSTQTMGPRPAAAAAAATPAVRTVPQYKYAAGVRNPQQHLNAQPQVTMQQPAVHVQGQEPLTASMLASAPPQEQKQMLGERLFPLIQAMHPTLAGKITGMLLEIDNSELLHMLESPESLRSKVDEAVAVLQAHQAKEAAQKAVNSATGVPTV
Rce1 inhib – yeast Rce1p protease inhibitors, primary screen, biochemical, fluorescence, cell-free homogeneous. CAAX prenyl protease 2 (Saccharomyces cerevisiae (strain ATCC 204508 / S288c)), Q03530. yeast membranes, quenched prenylated peptide cleavage fluorescence. calls only. 0.27% of 290,000 active;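 active means fall in fluorescence gain of 50% or more versus controls, with final raw signal at or below 3038400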;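 further: plate controls were neutral control wells for no effect and wells lacking membranes for full effect; tested at 10 µM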
MT1-MMP act inh RFP – also measured in MT1-MMP act inh; calls as there; RFP signal change, %; measured here: RFP expression control read;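 0 = vehicle wells; hits needed this value within 50% of zero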
An asterisk follows results filed as active; i = inactive; nt = not tested or not shown. Some of the compounds tested (hit frequency here may not be typical).

SMILES | MT1-MMP act inh | MT1-MMP act inh RFP | eIF4H FP inh | UUG fidelity | Env fusion inh | CSC inhib | PABP FP inh | Rce1 inhib
CN=C1S/C(=C\c2ccc(Cl)cc2)C(=O)N1C | -1 | 7 | 4 | nt | -7 | -19 | 5 | i
CN1CCN(S(=O)(=O)c2ccc3c(c2)C(C)(C)C(=O)N3C)CC1 | -2 | 4 | -4 | 6 | 6 | -7 | -9 | i
CCOc1ccc(N2C(=O)C(CC(=O)Nc3ccccc3)N(Cc3ccccn3)C2=S)cc1 (stereo not given) | -3 | -2 | -4 | -9 | 9 | 8 | -5 | i
FC(F)C(F)(F)C(F)(F)C(F)(F)c1cc(-c2ccccc2)n[nH]1 | -1 | -5 | 11 | -21 | nt | 43 | -14 | i
O=C(CN1CCC(C(=O)c2ccc3c(c2)OCCO3)CC1)NCc1ccc(F)cc1 | -3 | -4 | -7 | -5 | -5 | nt | -4 | i
COc1ccccc1CN1CN(S(=O)(=O)c2ccccc2)c2nc3ccccc3nc21 | -5 | -13 | -3 | nt | 7 | 4 | -7 | i
c1cncc(-c2nnc(SCc3cccc4ccccc34)o2)c1 | -2 | -5 | -4 | -6 | 1 | 24 | -5 | i
Cc1ccc(S(=O)(=O)N2CCC(C(N)=O)CC2)cc1C(=O)NC1CCCCC1 | 4 | 2 | nt | -19 | -7 | 3 | nt | i
CCCCNC(=O)Cn1nc(Cc2ccncc2)c2ccccc2c1=O | 2 | 3 | 1 | -1 | 10 | -4 | -13 | i
COc1cc(NC(=O)c2cccc(C)c2)c(OC)cc1NC(=O)CN1CCOCC1 | 4 | 2 | -3 | -11 | 5 | -7 | 11 | i
O=C(N=C1SC2CS(=O)(=O)CC2N1c1ccccc1F)C1CCCCC1 (stereo not given) | -2 | -4 | 1 | -8 | 0 | -3 | 12 | i
CC(=O)Nc1ccc(-c2cc(N)n(-c3ccccc3)n2)cc1 | 0 | 3 | 10 | -12 | -30 | -10 | 6 | i
CCOc1ccc(Cc2nnc(SCC(=O)Nc3c(C)cccc3C)[nH]c2=O)cc1 | 6 | 2 | nt | nt | -3 | -14 | nt | i
Cc1nn(C)c(C(=O)NN)c1Cl | 3 | 4 | -7 | nt | 13 | -10 | -2 | i
CCOc1ccc(/C=N/n2nnnc2N)cc1OCC | 1 | 3 | 7 | -1 | 12 | -6 | -3 | i
CCOC(=O)c1ccc(NC(=S)N2CCN(CCN=CC3=C(O)CC(c4ccccc4)CC3=O)CC2)cc1 (stereo not given) | 0 | -2 | 2 | -12 | 10 | -5 | 1 | i
CCC1CCCCN1Cc1c(O)ccc2c(=O)c(-c3ccccc3OC)coc12 (stereo not given) | 4 | 1 | nt | 7 | 5 | 3 | nt | i
COCCn1c(N)c(N(Cc2ccccc2)C(=O)c2ccc(-c3ccc(Cl)cc3)o2)c(=O)[nH]c1=O | 4 | 2 | nt | 1 | -7 | 12 | nt | i
CC(C)(C)Sc1ccc(/C=N/O)cc1[N+](=O)[O-] | 2 | 4 | -2 | nt | 8 | 7 | 0 | i
O=C(NCc1ccc(Cl)cc1)C1C2C=CC3(CN(Cc4cccnc4)C(=O)C13)O2 (stereo not given) | 2 | 4 | -8 | -9 | nt | -10 | -6 | i

Entries of single compounds from above. Values in the order: MT1-MMP act inh	MT1-MMP act inh RFP	eIF4H FP inh	UUG fidelity	Env fusion inh	CSC inhib	PABP FP inh	Rce1 inhib
Results for COc1cc(NC(=O)c2cccc(C)c2)c(OC)cc1NC(=O)CN1CCOCC1 : 4	2	-3	-11	5	-7	11	i
Results for O=C(N=C1SC2CS(=O)(=O)CC2N1c1ccccc1F)C1CCCCC1 (stereo not given) : -2	-4	1	-8	0	-3	12	i

(list continues)
SMILES | MT1-MMP act inh | MT1-MMP act inh RFP | eIF4H FP inh | UUG fidelity | Env fusion inh | CSC inhib | PABP FP inh | Rce1 inhib
Cc1cc(Br)ccc1NC(=O)c1sc2ncnc(N3CCN(c4ccccn4)CC3)c2c1C | -1 | -11 | 1 | -11 | 4 | 1 | 1 | i
O=C(CCC(F)(F)F)N1CCC(CO)(CCc2ccccc2)CC1 | -3 | 1 | 9 | 3 | -11 | -7 | 4 | i
Cc1nn(-c2cc(C)c3ccccc3n2)c2c1CCC2 | 7 | 3 | 2 | -9 | -238 | 6 | -2 | i
COc1ccccc1CCNC(=O)CSc1ccc(-c2cccs2)nn1 | 2 | 5 | -5 | nt | 6 | -9 | 12 | i
Cc1ccc(C)c(N2CCN(S(=O)(=O)c3csc(C(N)=O)c3)CC2)c1 | -2 | -3 | -9 | 7 | -2 | -5 | -5 | i
CC1CCN(c2cc(C#N)c(C#N)cc2[N+](=O)[O-])CC1 | 3 | 0 | 1 | -9 | i | 59 | -4 | i
O=P(O)(CCc1ccccn1)CN1CCCCC1 | 4 | 6 | -3 | -24 | nt | nt | -6 | nt
Cn1ncc(C(=O)Nc2ccc(Cl)cc2)c1C(F)(F)F | 5 | -4 | -2 | -22 | -3 | 1 | 2 | i
C=C(C)C(=O)OCC(=O)NCc1ccccc1 | 0 | 0 | -7 | nt | -8 | -10 | -6 | i
CCOC(=O)Nc1ccc2c(c1)N(C(=O)CCN(C)C)c1ccccc1S2 | -3 | 0 | 6 | nt | -76 | 2 | 4 | i
Cc1nn(C)c(C)c1C(C)NC(=O)c1cc(COc2ccc(F)c(F)c2)on1 (stereo not given) | 1 | -8 | -11 | -20 | -18 | -16 | -7 | i
O=C(Cc1ccccc1)NCC(=O)N1CCN(c2ccc(F)cc2)CC1 | 3 | 7 | nt | -8 | 19 | nt | nt | nt
CCOC(=O)C(C)Sc1ccc2nnc(CCNS(=O)(=O)c3ccc(C)cc3)n2n1 (stereo not given) | -2 | 5 | -9 | nt | -2 | nt | -12 | i
O=C(CCN1CCN(c2ccccn2)CC1)Nc1ccc(F)cc1 | 1 | 3 | -9 | -17 | nt | -9 | -10 | i
Cc1ccc(OCc2ccc(C(=O)Nc3c(C)nn(Cc4c(F)c(F)c(F)c(F)c4F)c3C)o2)c([N+](=O)[O-])c1 | -1 | -16 | -11 | -8 | 30 | -6 | -14 | i
Cc1ccc(-c2nnc(-c3ccc(NC(=O)Cc4cccs4)cc3)o2)cc1 | 1 | 1 | -21 | -2 | nt | 44 | -19 | i
CCOc1cccc2cc(-c3csc(NC(=O)CCC(=O)NCCN4CCCCC4C)n3)c(=O)oc12 (stereo not given) | 6 | 1 | 5 | -18 | -70 | 6 | -5 | i
COc1ccc(C(=O)OCC(=O)C(C)(C)C)cc1S(=O)(=O)N(C)CCc1cccnc1 | 6 | 7 | 2 | nt | 3 | -11 | -2 | i
CCOC(=O)Cn1cnc2scc(-c3ccc(C)c(C)c3)c2c1=O | 1 | 8 | 2 | 8 | 7 | 7 | 1 | i
Cc1cc2oc(C(=O)NC3CCS(=O)(=O)C3)cc(=O)c2cc1C (stereo not given) | -1 | 2 | -11 | -14 | 5 | nt | 4 | i
O=C(Nc1cccc2oc(=O)ccc12)c1ccc([N+](=O)[O-])cc1[N+](=O)[O-] | 10 | -5 | 4 | nt | 3 | 12 | 5 | i
Cc1ccc(S(=O)(=O)NC(=O)c2cc(C)n(CCCn3ccnc3)c2C)cc1 | -5 | 1 | 8 | -23 | nt | -6 | 18 | nt
Cc1ccc(OCC(=O)Nc2ccc(S(=O)(=O)N3CCN(C)CC3)cc2)cc1 | -8 | 4 | 2 | -1 | 4 | -4 | -1 | i
COc1ccc(NC(=O)NCCCN2CCN(c3cc(C)ccc3C)CC2)cc1 | 2 | 2 | 1 | 9 | 59* | 22 | -9 | i
Cc1ccc(NC(=O)c2cnccn2)cc1S(=O)(=O)N(C)C | 7 | 6 | -10 | -21 | -3 | -10 | -1 | i
CCOc1ccc(NS(=O)(=O)c2coc(C(N)=O)c2)cc1 | 0 | -3 | -2 | -13 | -6 | -14 | 7 | i
Cc1ccc(CNC(=O)COC(=O)c2ccc(S(=O)(=O)N(C)C)cc2)cc1 | 1 | 3 | -4 | -2 | -2 | -9 | 4 | i
C/C(=N/Oc1nc(C)cc(C)n1)c1ccc(Cl)cc1Cl | 6 | 7 | 4 | -29 | nt | 1 | -7 | i
CC1(C)CC(N2CCN(Cc3ccccc3)CC2)=CC(=[N+]2CCCCC2)C1 | -3 | -34 | 8 | -13 | -2 | -3 | 35 | i
NC(=O)C1=C[C@H](c2coc3ccccc3c2=O)C[C@H](OCc2ccc(CO)cc2)O1 | 4 | 1 | -13 | -17 | -29 | -8 | -5 | i
Cc1ccc(C(=O)N2[C@@H]3CN(C)C(=O)[C@@]2(C)[C@H]2C(=O)N(Cc4ccccc4)C(=O)[C@@H]32)cc1 | 4 | 4 | nt | 10 | -11 | nt | nt | nt
O=C(COc1ccccc1)NC(=S)Nc1cccc2cc(O)ccc12 | 2 | 2 | 8 | -13 | 1 | 0 | 6 | i
O=C(COc1cc2oc(=O)c3c(c2cc1Cl)CCC3)NCCN1CCOCC1 | -3 | -4 | -9 | 2 | 0 | -3 | 2 | i
Cc1cc(OCC(=O)Nc2nnc(C3CC3)s2)ccc1Cl | 8 | 5 | nt | -9 | 2 | nt | nt | nt
Clc1nnc(Cl)c2c1ncn2Cc1ccccc1 | 3 | 0 | 1 | nt | -25 | 0 | 0 | i
COc1ccc(C2=NOC(C(=O)NCc3cccnc3)C2)cc1OC (stereo not given) | -2 | -2 | -1 | -22 | -2 | -2 | 1 | i
CC(OC(=O)c1ncc(Cl)c(Cl)c1Cl)C(=O)NC1CCCCC1C (stereo not given) | -3 | 0 | nt | -5 | 3 | -3 | nt | i
O=C(CN(C(=O)CSc1nnc(COc2ccccc2)o1)c1ccc(F)cc1)NC1CCCCC1 | -9 | -12 | -4 | -16 | nt | -4 | 2 | i
C[C@H](NC(=O)c1nc[nH]c1C(=O)N[C@@H](Cc1ccccc1)C(=O)OC(C)(C)C)C(=O)OC(C)(C)C | -8 | -22 | 5 | 6 | -10 | nt | 3 | i

Five compounds from above, ordered by the number in MT1-MMP act inh, ascending:
| structure | MT1-MMP act inh | MT1-MMP act inh RFP | UUG fidelity | Env fusion inh | Rce1 inhib |
| --- | --- | --- | --- | --- | --- |
| C[C@H](NC(=O)c1nc[nH]c1C(=O)N[C@@H](Cc1ccccc1)C(=O)OC(C)(C)C)C(=O)OC(C)(C)C | -8 | -22 | 6 | -10 | i |
| CCOC(=O)Nc1ccc2c(c1)N(C(=O)CCN(C)C)c1ccccc1S2 | -3 | 0 | nt | -76 | i |
| C=C(C)C(=O)OCC(=O)NCc1ccccc1 | 0 | 0 | nt | -8 | i |
| CCOc1ccc(Cc2nnc(SCC(=O)Nc3c(C)cccc3C)[nH]c2=O)cc1 | 6 | 2 | nt | -3 | i |
| Cc1ccc(NC(=O)c2cnccn2)cc1S(=O)(=O)N(C)C | 7 | 6 | -21 | -3 | i |

Source: PubChem (several laboratories)
